High-throughput results as filed in PubChem BioAssay.
Mtb bLac sens: beta-lactam sensitization of Mtb H37Rv, H37Rv; M. tuberculosis H37Rv growth with meropenem, percent inhibition; hits of this screen are not shown here; inhibition, % at 25 µM; 330,000 compounds, 0.27% hits;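 active = about 74% or more and at least 40 points above the plate without the antibiotic, then above 30% in a dose series; inconclusive = first-round hits that could not be retested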;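 note: growth measured after seven days incubation then overnight dye step; 0% = bacteria only wells and 100% = bacteria with antibiotic; twin plates without the antibiotic show which effects depend on it; some results filed as inactive read as strong as hits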
Arbovirus inh: antivirals against arbovirus infection, primary screen, cell-based, full library, 10K replicate subset | inhibition, % at 10 µM | arbovirus infection cell-based antiviral screen | 200,000 compounds, 0.37% hits;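 active = inhibition from about 30%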;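 note: bluetongue infection of BSR cells; cell survival read as ATP light after 72 h; 0% = infected wells without compound and 100% = uninfected wells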
YopH PTP inh: YopH tyrosine phosphatase inhibitors, primary screen, biochemical, fluorescence Ex485/Em525. YopH tyrosine phosphatase [Yersinia enterocolitica]. inhibition, %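 (about 10 µM by stock and volumes)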. 140,000 compounds, 0.16% hits;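 active = inhibition of 50% or more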;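 note: controls were vehicle for no effect and minimum signal wells for full effect; inactives centre near -20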
Mtb growth: M. tuberculosis H37Rv growth inhibitors, H37Rv strain (AID 1626) | M. tuberculosis H37Rv growth inhibition; higher % means a stronger effect | inhibition, % at 10 µM, or IC50 in µM where a hit was titrated | 220,000 compounds, 0.95% hits;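 active = confirmed in a dose series; inconclusive = inhibition above 80% but not taken into the dose series; inactive = below 80% or under 30% at every dose of the series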;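 note: bacteria incubated seven days before Alamar blue readout; 0% = bacteria only wells and 100% = bacteria with antibiotic wells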
RecA splice inh: Mtb RecA intein splicing inhibitors, primary screen, biochemical, fluorescence, HTS. 290,000 compounds, 0.75% hits. Protein RecA (Mycobacterium tuberculosis (strain ATCC 25618 / H37Rv)), P9WHJ3. cell-free RecA intein splicing. inhibition, %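 (about 9 µM by stock and volumes)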; in the data active = inhibition above about 30%; inconclusive = no clear call, values can overlap the other calls;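 note: 0% = vehicle wells and 100% = reference inhibitor control wells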
Target sequence (P9WHJ3 whole entry, looked up, canonical isoform): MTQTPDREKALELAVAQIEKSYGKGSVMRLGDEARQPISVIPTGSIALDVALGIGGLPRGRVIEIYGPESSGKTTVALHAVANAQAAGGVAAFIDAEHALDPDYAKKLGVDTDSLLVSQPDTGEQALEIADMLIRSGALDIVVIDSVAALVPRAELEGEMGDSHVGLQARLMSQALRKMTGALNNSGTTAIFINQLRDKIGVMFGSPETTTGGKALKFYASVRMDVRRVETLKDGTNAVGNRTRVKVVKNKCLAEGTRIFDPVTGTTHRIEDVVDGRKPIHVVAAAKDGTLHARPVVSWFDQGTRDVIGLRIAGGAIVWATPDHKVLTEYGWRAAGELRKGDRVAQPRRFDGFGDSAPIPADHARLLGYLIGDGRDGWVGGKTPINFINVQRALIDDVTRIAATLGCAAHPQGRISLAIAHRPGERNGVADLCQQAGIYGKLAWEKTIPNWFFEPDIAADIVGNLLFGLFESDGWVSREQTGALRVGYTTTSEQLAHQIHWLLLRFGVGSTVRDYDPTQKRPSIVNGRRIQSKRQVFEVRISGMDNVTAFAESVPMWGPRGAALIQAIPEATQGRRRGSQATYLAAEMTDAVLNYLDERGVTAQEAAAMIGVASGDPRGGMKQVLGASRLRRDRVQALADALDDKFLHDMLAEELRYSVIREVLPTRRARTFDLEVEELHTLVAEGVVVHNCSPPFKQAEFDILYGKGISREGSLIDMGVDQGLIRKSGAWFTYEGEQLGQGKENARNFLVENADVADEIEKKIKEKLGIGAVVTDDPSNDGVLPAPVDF
Numbers without * were called inactive; u = inconclusive; x = not tested or not shown. This is a subset; rates above refer to the full screens.

Each structure is followed by: Mtb bLac sens | Arbovirus inh | YopH PTP inh | Mtb growth | RecA splice inh
O=C(CN1CCCc2ccccc21)N/N=C/c1ccc(O)cc1O
  43 | -13 | -11 | -9% | -0.3
COc1ccccc1/C=N/NC(=O)CNC(=O)c1ccccc1
  -17 | x | x | -10% | -1.2
Cc1nn(CC2CC2)c(=O)n1-c1ccccc1
  -13 | 8 | x | 5% | 2.4
COc1ccc2nc(N3CCN(C(=O)c4ccc5ncsc5c4)CC3)sc2c1
  -3 | x | x | x | -1.8
CN1CCN(NC(=O)c2cc(S(=O)(=O)N3CCOCC3)c(Cl)cc2Cl)CC1
  -3 | 1 | -12 | -4% | 3.8
O=C1C(Cl)=C(NCC2CCCO2)C(=O)N1c1ccccc1 (stereo not given)
  -2 | -5 | -9 | 1% | 33*
Cc1cc(=O)oc2c3c(cc(OCC(=O)NCC(=O)O)c12)OC(C)(C)CC3
  -11 | x | x | x | -2.0
CCOc1c(Nc2ccccc2O)c(=O)c1=O
  -12 | x | x | -9% | -3.2
CC(=O)Nc1cccc(C(=O)OC(C)C(=O)Nc2ccc(S(=O)(=O)N3CCCC3)cc2)c1 (stereo not given)
  -6 | x | x | x | -0.3
O=C(CSc1nccc(=O)[nH]1)N1c2ccccc2CCc2ccccc21
  0 | 5 | -47 | -14% | -2.6
CCOC(=O)CSc1nc(N(C)C)nc(N(C)C#N)n1
  28 | -4 | 25 | -3% | -0.7
C/C(Cl)=C/Cn1c(N2CCCC2)nc2c1c(=O)[nH]c(=O)n2C
  -6 | x | x | x | -4.7
c1coc(CNc2ncnc3nc[nH]c23)c1
  -4 | -1 | -38 | 1% | -1.2
CC(C)C(NC(=O)c1ccc(F)cc1)C(=O)NCC1CCCO1 (stereo not given)
  -6 | x | x | -2% | -0.7
CCOC(=O)c1cc(NC(=O)c2cccnc2)ccn1
  -2 | x | x | x | -1.7
CCCn1c(C)cc(C(=O)COC(=O)c2c(C)nn(-c3ccccc3)c2C)c1C
  22 | -1 | -8 | -1% | 9.6
CCCCOc1cccc(C2C(C(=O)c3ccc(C)o3)=C(O)C(=O)N2Cc2ccco2)c1 (stereo not given)
  -15 | x | x | x | 7.7
Cc1ccc(CNC(=O)c2cn(C3CCCCC3)c(=O)c3c2c2ccccc2n3C)o1
  1 | 3 | -20 | 13% | 15
COc1ccc(OCc2nnc3n2N=C(c2ccccc2)C(CC(=O)O)S3)cc1 (stereo not given)
  96 | x | x | x | 0.9
Cc1nc2c(=O)n(-c3cccc(C(F)(F)F)c3)nc(C)c2s1
  1 | x | x | -1% | 1.3
Cc1cc(=O)[nH]c(SCC(=O)/C=C2\N(C)c3ccccc3C2(C)C)n1
  6 | 0 | -47 | 2% | -2.5
COC(=O)COc1ccc(S(=O)(=O)NCc2ccco2)cc1Cl
  1 | -1 | -21 | -7% | -2.3
Cc1cnccc1CN(C)C(=O)CC1C(=O)NCCN1CC1CCCCC1 (stereo not given)
  -4 | 7 | x | -7% | -2.2
Cc1ccccc1NC(=O)c1c([N+](=O)[O-])c(C(C)(C)C)nn1C
  -4 | 2 | -22 | 2% | -5.4
COc1ccc(C(CC(=O)N2CCC3(CC2)OCCO3)NS(=O)(=O)c2ccc(F)cc2)cc1 (stereo not given)
  -5 | -1 | -45 | -3% | -0.1
COc1ccc(-c2c(NC(=O)C(C)C)n(C)c3ccccc3c2=O)cc1
  u | -3 | -6 | 0% | 0.0
O=C(CSc1nnc(NC(=O)c2c(F)cccc2F)s1)NCc1ccco1
  -6 | x | x | x | -1.8
CCC(C)NC(=O)CSc1nc2c(sc(=S)n2-c2cc(Cl)ccc2OC)c(=O)[nH]1 (stereo not given)
  -4 | x | x | x | 1.4
CC1CCN(Cc2c(C(=O)N/N=C/c3ccc(OC(C)C)cc3)nnn2-c2nonc2N)CC1
  17 | x | x | x | -1.5
O=C(Cc1c[nH]c2ccccc12)NCc1ccccc1F
  8 | 2 | x | 11% | 3.8

A different layout for 2 compounds above.
> O=C(CSc1nccc(=O)[nH]1)N1c2ccccc2CCc2ccccc21
  Mtb bLac sens: 0	Arbovirus inh: 5	YopH PTP inh: -47	Mtb growth: -14%	RecA splice inh: -2.6

> CCOc1c(Nc2ccccc2O)c(=O)c1=O
  Mtb bLac sens: -12	Arbovirus inh: x	YopH PTP inh: x	Mtb growth: -9%	RecA splice inh: -3.2

Carrying on:
Each structure is followed by: Mtb bLac sens | Arbovirus inh | YopH PTP inh | Mtb growth | RecA splice inh
Cc1cc[n+](CC(=O)c2cc3ccccc3oc2=O)cc1
  -6 | 0 | -27 | -2% | -2.8
COc1ccc(OCC(=O)N2CCC3(CC2)CC(=O)c2ccccc2O3)cc1
  -8 | x | x | x | -2.0
CCOc1ccc(-c2ccc(SCC(=O)N3CCOCC3)nn2)cc1
  5 | -7 | x | -4% | -0.1
COC(=O)c1ccc(-c2ncc[nH]2)cc1
  -6 | 1 | x | 8% | -5.4
COC(=O)C1CCCN1S(=O)(=O)c1ccc2ccccc2c1 (stereo not given)
  17 | -4 | -35 | 2% | 26
CCCn1ncc(/C=N/O)c1C
  7 | x | x | -4% | -2.8
Cc1cc(/C=N/NC(=O)c2ccncc2)c(C)n1-c1cccc(C(F)(F)F)c1
  99 | x | x | u | -1.7
COCCNS(=O)(=O)c1ccc2c(c1)C(=NO)c1cc(S(=O)(=O)NCCOC)ccc1-2
  -1 | x | x | x | -1.5
CC(=O)C1=C(O)C(=O)N(Cc2ccco2)C1c1ccccc1 (stereo not given)
  18 | -1 | 1 | -4% | 1.5
N#Cc1ccc(-c2nnnn2-c2ccc3c(c2)OCO3)cc1
  -6 | 5 | -34 | 6% | -0.4
Cc1nnc(SCC(=O)NCCOc2ccc(Cl)cc2)n1-c1ccccc1
  -11 | 4 | -22 | -3% | 0.5
COc1ccc(/C=C2\Sc3ccc(C(=O)NC4CC4)cc3N(C)C2=O)cc1OC
  96 | x | x | x | -5.0
COC(=O)c1sc2ncccc2c1OCc1cccc(Cl)c1
  -12 | 3 | -55 | -12% | 3.7
CC1=C(C(=O)OCc2ccccc2)C(c2ccsc2)C(C#N)=C(N)O1 (stereo not given)
  8 | -3 | 23 | -4% | 3.5
CCOC(=O)c1[nH]c(C)c(C(=O)OCCN2C(=O)c3ccccc3C2=O)c1C
  4 | 0 | -20 | -5% | -0.5
COc1cc(/C=C/C(=O)OCC(=O)NC(=O)NC(C)C)ccc1OCC#N
  9 | 1 | -16 | 12% | -0.3
C/C(=N\NC(=O)Nc1ccccc1)c1ccc2ccccc2c1
  1 | 6 | -29 | 4% | -4.4
Cc1nc(NCCc2ccccc2)c(C#N)c(C)c1[N+](=O)[O-]
  92 | 5 | -17 | 57% | 9.0
CC(Oc1ccc2c(c1)c1ccnc3c4ccccc4c(=O)n2c13)C(=O)NCCN1CCOCC1 (stereo not given)
  70 | x | x | x | -11
CN/C=C1\C(=O)C(C)(C)Oc2ccc3ccc(=O)oc3c21
  2 | -8 | 31 | -2% | -1.4
O=C(CN1CCCCCC1)N/N=C/c1ccc2ccccc2c1
  -7 | x | x | x | -0.3
Cc1ccccc1NC(=S)NC(=O)Cc1ccc(Cl)cc1
  32 | x | x | x | 6.5
Cc1nn(-c2ccccn2)c2c1C(c1ccsc1)C1=C(CCCC1=O)N2 (stereo not given)
  41 | -12 | -16 | x | 2.8
CC(=O)c1cccc(NC(=O)CN2C(=O)c3ccccc3C2=O)c1
  1 | x | x | x | -1.0
CCCn1c(=O)c2[nH]c(C3CCCC3)nc2n(CCC)c1=O
  -7 | -9 | -10 | -6% | 3.6
N#Cc1c(-c2cccnc2)c2c([nH]c1=O)-c1ccccc1OC2
  -4 | x | x | -5% | -449
Oc1ccc(-c2nnc(Nc3ccccc3)c3ccccc23)cc1
  54 | x | x | -3% | 7.2
CC(OC(=O)c1nsc(Cl)c1Cl)C(=O)NC(C)(C)C (stereo not given)
  -12 | 2 | -3 | -7% | 2.7
Cc1ccccc1CSc1[nH]c(=O)ncc1C
  -1 | x | x | x | 1.1
CC(=O)c1ccc(NC(=O)Cn2cnc(S(=O)(=O)N3CCCC3)c2)cc1
  6 | x | x | x | -0.1

Random excerpt: five records from the list, in no set order.
Each structure is followed by: Mtb bLac sens | Arbovirus inh | YopH PTP inh | Mtb growth | RecA splice inh
COCCNS(=O)(=O)c1ccc2c(c1)C(=NO)c1cc(S(=O)(=O)NCCOC)ccc1-2
  -1 | x | x | x | -1.5
CC(Oc1ccc2c(c1)c1ccnc3c4ccccc4c(=O)n2c13)C(=O)NCCN1CCOCC1 (stereo not given)
  70 | x | x | x | -11
CCOc1ccc(-c2ccc(SCC(=O)N3CCOCC3)nn2)cc1
  5 | -7 | x | -4% | -0.1
CCCn1ncc(/C=N/O)c1C
  7 | x | x | -4% | -2.8
Cc1ccccc1CSc1[nH]c(=O)ncc1C
  -1 | x | x | x | 1.1

Remaining list, next part:
Each structure is followed by: Mtb bLac sens | Arbovirus inh | YopH PTP inh | Mtb growth | RecA splice inh
CCOC(=O)c1nc2ccccc2c(=O)n1-c1cccc(C)c1
  -6 | 1 | -24 | 4% | -0.6
Oc1cccc(NC(=S)N=Nc2c(O)[nH]c3ccc(Br)cc23)c1
  0 | x | x | 11% | 21
O=C(c1ccc(Cl)cc1)C1CCCN(Cc2cccn2-c2ccccn2)C1 (stereo not given)
  2 | -27 | x | 5% | 2.1
CCNC(=O)c1ccccc1NC(=O)c1cccc(S(=O)(=O)N2CCOCC2)c1
  5 | -7 | -30 | -1% | -0.3
CCOc1ccc(NC(=O)NC23CC4CC(CC(C4)C2)C3)cc1
  99 | 1 | -20 | 2.6µM* | 4.0
C[C@@H]1CC[C@@]2(O[C@@H](CCO)C[C@H](O)[C@H]2O)O1
  2 | x | x | -6% | -3.1
CN(C)C(=O)C12CCC(C)(C(=O)C1Br)C2(C)C (stereo not given)
  -8 | x | x | 3% | -1.6
Cc1cccc(C(=O)NC(=S)Nc2ccc(S(=O)(=O)N3CCCCC3)cc2)c1
  -8 | -1 | 1 | 4% | 1.2
COc1ccc2oc(=O)c(C(=O)NCc3ccc(C)cc3)cc2c1
  1 | x | x | x | -8.5
COc1cc(OC)cc(C(=O)OCC(=O)NC(C)CCc2ccccc2)c1 (stereo not given)
  2 | x | x | x | 0.0
COc1ccc(C2CC(c3ccccc3)=NN2C(=O)COC(=O)CNC(=O)c2ccccc2)cc1 (stereo not given)
  -2 | 1 | -25 | -5% | -2.6
O=C(Nc1cccc(C(=O)N2CCCC2)c1)c1ccccc1
  3 | 8 | 8 | -2% | -2.6
CCO[C@H]1OC(C(=O)N2CCOCC2)=C[C@@H](C)[C@@H]1CCCO
  -7 | 2 | x | -3% | -0.6
O=C(NCc1ccco1)C(=O)NCC1OCCCN1S(=O)(=O)c1ccc(F)cc1 (stereo not given)
  2 | 14 | x | 0% | 0.1
Cc1ccc(C)c(S(=O)(=O)N2CCN(C(=O)CCC(=O)c3cc(C)sc3C)CC2)c1
  -12 | x | x | x | 7.7
O=Nc1c(-c2ccccc2)cc2ccccn12
  90 | -14 | x | 0% | 1.9
CCC[C@H]1COCCS(=O)(=O)N1Cc1ccccc1F
  3 | x | x | x | 2.2
O=C(O)CCc1ccc(-c2cccs2)n1NC(=O)c1ccc(Cl)cc1Cl
  -5 | 8 | -18 | 0% | 4.1
COc1ccc(N2CCN(C3CCCN(C(=O)CSC)C3)CC2)cc1 (stereo not given)
  -9 | x | x | x | -3.3
CC(C)(C)c1ccc(C2C(C(=O)c3ccco3)=C(O)C(=O)N2CC2CCCO2)cc1 (stereo not given)
  7 | x | x | x | 3.9
CC(CNc1ccc([N+](=O)[O-])cc1)NC(=O)c1ccccc1Br (stereo not given)
  -2 | 1 | -33 | 10% | 4.9
CC1=CC(C)(C)N2C(=O)C3(C(C#N)=C(N)Oc4cc(O)ccc43)c3cccc1c32 (stereo not given)
  1 | -11 | -11 | -1% | 13
CC(NC(=O)COC(=O)CCc1ccccc1)c1ccccc1 (stereo not given)
  u | 2 | -16 | -3% | -0.5
Cc1ccc2c(c1)nnn2C1CCN(CC(=O)NCc2ccccc2F)CC1
  -1 | -3 | x | -5% | 0.1
Cc1ccc(C)c(N2CCN(S(=O)(=O)c3cc4c(cc3Cl)NC(=O)CO4)CC2)c1
  6 | x | x | x | -2.3
CCCCCC(=O)NNC(=O)c1ccc(-c2ccccc2)cc1
  12 | 1 | -21 | 8% | 3.3
COc1ccc(CNC(=O)CN(CCC(C)C)S(=O)(=O)c2ccc3c(c2)OCCO3)cc1
  6 | 3 | -15 | 14% | 1.5
